Assay outcomes as filed in PubChem.
Sa growth 42C – blocks Staphylococcus aureus growth | relative growth, % (test concentration not listed) | actives 0.53% (n = 170,000) | S. aureus RN4220 growth, OD600, 20 h, 42 °C; stronger effect = lower value;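 active means growth at 42 °C up to 50% and 20 or more points under that at 30 °C, or under 10% at both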;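 further: 300 nL library stock went into each well; scaled to the means of positive and negative controls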
HCMV UL50-53 inh – disrupts HCMV UL50-UL53 complex binding. HTRF UL50-UL53 interaction, normalized percent inhibition. inhibition, % (concentration not given with the values). actives 0.15% (n = 190,000);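 active means both replicates at 50% or more, plus weaker picks with an unusually low signal ratio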;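 further: stock transfer was 100 nL into about 20 µL; 0% = negative control wells and 100% = wells with untagged competitor protein; inactives centre near -12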
GIV Gai3 FP – blocks GIV peptide binding to rat Galpha-i3 | P08753 | Galpha-i3/FITC-GIV peptide fluorescence polarization, 90 min; stronger effect = lower value; scaled: aluminum fluoride 0%, vehicle 100% | percent of control (FP), % (concentration not given with the values) | actives 0.42% (n = 210,000) | AID 1224905;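 active means replicate mean at 85% of control or lower, very high polarization wells dropped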;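 further: wells of about 15 µL received 100 nL stock; the first replicate is given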
Target sequence (P08753 whole entry, looked up): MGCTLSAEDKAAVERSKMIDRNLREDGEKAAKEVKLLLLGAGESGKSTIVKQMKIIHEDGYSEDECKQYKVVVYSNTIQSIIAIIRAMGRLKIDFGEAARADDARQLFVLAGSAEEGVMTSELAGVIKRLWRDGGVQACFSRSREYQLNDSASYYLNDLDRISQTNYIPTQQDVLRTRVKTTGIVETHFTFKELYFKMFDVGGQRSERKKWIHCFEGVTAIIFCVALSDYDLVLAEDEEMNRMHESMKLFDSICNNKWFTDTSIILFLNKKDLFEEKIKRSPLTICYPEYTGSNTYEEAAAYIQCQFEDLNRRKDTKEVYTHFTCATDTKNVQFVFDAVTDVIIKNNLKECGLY
Sa growth 42C second temp – second read-out of Sa growth 42C, no call of its own (marks repeat the call); relative growth, %; measured here: growth at 30 °C;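 optical density after 20 h as mean of two plates; 100% = untreated growth and lower means inhibition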
Numbers without * were called inactive; x = not tested or not shown; & = joins results of further samples. No enrichment for hits; 0.79% or so of the library scored in one or more.

SMILES	Sa growth 42C	Sa growth 42C second temp	HCMV UL50-53 inh	GIV Gai3 FP
Cc1ccc(N=C2NC(=O)/C(=C\c3ccc4c(c3)n(C)c(=O)n4C)S2)cc1	127	81	x	94
CCOc1ccc(NC(=O)N2CCC(CN3CCc4ccccc4C3)CC2)cc1	109	92	x	106
CCOC(=O)C1CCN(Cc2coc3ccc(C)cc3c2=O)CC1	101	87	-2	112
COc1nn2nnnc2c2ccccc12	85	84	-33	97
CC(C)N(CCNc1nc2ccccc2c2nc(-c3cccnc3)nn12)Cc1ccco1	101	87	6	103
FC(F)(F)c1cc(-c2nc(=S)[nH][nH]2)cc(C(F)(F)F)c1	97	96	x	107
O=C(NCc1ccco1)c1ccc2c(c1)N(Cc1ccc(Cl)cc1)C(=O)c1ccccc1S2=O (stereo unspecified)	103	92	8	103
COCC(C)n1c(COc2ccccc2F)nnc1SCC(=O)N(C(C)C)C(C)C (stereo unspecified)	112	91	-5	x
CCOc1ccc2nc(NC(=O)c3ccc(S(=O)(=O)N4CC(C)CC(C)C4)cc3)sc2c1 (stereo unspecified)	x	x	-3	111
CCOC(=O)N1CCC2(CC1)C(C#N)=C(N)SC(N)=C2C#N	74	66	1	100
c1ccc(CCNc2ncnc3ccsc23)cc1	90	86	-15	102
Cc1oc(-c2ccccc2)nc1Cn1c(SCc2cccc(Cl)c2)nc2ccncc21	133	90	x	105
O=C(CCS(=O)(=O)c1cccc2nonc12)Nc1c(F)cccc1F	110	95	-107	106
O=c1cc(NCc2ccco2)[nH]c(=O)n1-c1ccc(Cl)cc1	98	90	-1	107
Cc1ccc(C)c(S(=O)(=O)NCc2ccccc2)c1	96	80	-20	x
O=C(Sc1nnnn1-c1ccccc1)c1ccccc1Br	104	99	-6	103
Cc1cc(=O)n(-c2cccc(C(F)(F)F)c2)[nH]1	47	18	-14	x
O=C(O)c1ccc(CN2C(=O)COc3ccccc32)o1	79	92	-10	99
O=C(Nc1ccc(-n2nncc2-c2ccccc2)cc1)c1c(F)cccc1F	114	86	x	104
O=S(=O)(c1ccc(-c2cnc(C3CC3)o2)cc1)N1CCN(c2ccccc2)CC1	78	87	x	101
O=C(Nc1ccc2oc(-c3ccncc3)nc2c1)c1cc([N+](=O)[O-])ccc1Br	x	x	-41	102
Cc1cc2c3c([nH]c2cc1S(=O)(=O)NCCc1ccco1)CCCC3=O	101	74	-40	102
COc1ccc(OC)c(CNC(=O)c2ccc(-c3nc(CSc4ccccc4)c(C)o3)cc2)c1	118	105	x	113
COc1ccc(-c2cc(-c3nc(-c4cc(OC)c(OC)c(OC)c4)no3)[nH]n2)c(OC)c1	110	84	x	106
O=C(Nc1cccc(Cl)c1)c1cc(S(=O)(=O)N2CCCc3ccccc32)ccc1F	118	102	x	102
COc1ccc(NC(=O)Cn2c(SCc3ccc(F)cc3)nc3cccnc32)cc1	x	x	-8	103
O=C1COc2ccc(S(=O)(=O)N3CCCC(C(=O)NC4CCCc5ccccc54)C3)cc2N1 (stereo unspecified)	x	x	-16	109
CCC(C)NC(=O)Cc1coc2cc(C)ccc12 (stereo unspecified)	102	102	-3	97
O=C(CSc1ccc2nnc(-c3ccccc3)n2n1)c1ccccc1	102	74	-1	100
COc1ccc(NS(=O)(=O)c2ccc3oc(=S)n(CN4CC(C)OC(C)C4)c3c2)cc1 (stereo unspecified)	68	95	-24	x
CCOC(=O)C1=C(Cn2nnc(C(=O)OC)c2C(=O)OC)NC(=O)NC1c1ccccc1 (stereo unspecified)	77	94	x	112
Cc1ccc(NC(=O)C2CCCN2S(=O)(=O)c2ccc3c(c2)n(C)c(=O)c(=O)n3C)cc1C (stereo unspecified)	76	101	17	106
CCOC(=O)c1c(C)c(-c2ccccc2)n(CC(=O)Nc2cccc(C)c2C)c1C	91	86	-27	98
Cc1ccc(S(=O)(=O)NCC(c2ccccc2)N2CCCCC2)cc1 (stereo unspecified)	118	82	-36	x
O=C(NCCCO)C(=O)Nc1c2c(nn1-c1ccc(F)cc1)CSC2	106	97	x	104
CN1c2cc(Cl)ccc2-c2nc(SCC(N)=O)ncc2S1(=O)=O	x	x	2	105
O=C(NCc1ccccc1)c1cnc(N2CCCCC2)c2ccccc12	96	95	x	107
COc1ccc(NCc2c(C#N)c(C)nn2-c2ccccc2)cc1	74	90	-20	x
O=C(CCCn1c(=O)c2cccn2c2cccnc21)NCCc1ccccc1	105	86	-16	103
COC(=O)CN(c1nc2nc(C)c(Cl)c(C)n2n1)S(=O)(=O)c1ccc(Cl)cc1	x	x	-21	101
CCCNC(=O)NC1CCN(c2cc(C)nc3ncnn23)CC1	x	x	-7	104
O=C(ON1C(=O)c2ccccc2C1=O)C1CCCCC1	90	64	x	98
Cc1ccc(Cl)cc1N1CCN(C(=O)C2CCCN(Cc3nc(-c4cccc(Cl)c4)oc3C)C2)CC1 (stereo unspecified)	110	93	2	102
CC(C(=O)NCc1ccco1)n1c2ccccc2c2cnn(C)c(=O)c21 (stereo unspecified)	116	94	x	102
COc1ccc(S(=O)(=O)Nc2ccc(-c3ccc(N4CCCC4)nn3)cc2)cc1F	113	89	x	104
CCN1CCN(C(=O)C(c2ccccc2)N2Cc3ccccc3C2=O)CC1 (stereo unspecified)	97	93	-27	103
O=C(OCCn1ncc2ccccc2c1=O)c1cccs1	102	89	-12	107
O=C1/C(=C/c2cc3ccccc3o2)CC/C1=C\c1cc2ccccc2o1	92	71	x	-5.9*
COc1ccccc1N1CCN(C/C(N)=N/O)CC1	101	106	1	107
COc1ccc2oc(=O)c(S(=O)(=O)c3ccc(C(C)C)cc3)cc2c1	98	90	x	102

A section of the results above, for reference:
SMILES	Sa growth 42C	Sa growth 42C second temp	HCMV UL50-53 inh	GIV Gai3 FP
CCCNC(=O)NC1CCN(c2cc(C)nc3ncnn23)CC1	x	x	-7	104
O=C(ON1C(=O)c2ccccc2C1=O)C1CCCCC1	90	64	x	98
Cc1ccc(Cl)cc1N1CCN(C(=O)C2CCCN(Cc3nc(-c4cccc(Cl)c4)oc3C)C2)CC1 (stereo unspecified)	110	93	2	102
CC(C(=O)NCc1ccco1)n1c2ccccc2c2cnn(C)c(=O)c21 (stereo unspecified)	116	94	x	102
COc1ccc(S(=O)(=O)Nc2ccc(-c3ccc(N4CCCC4)nn3)cc2)cc1F	113	89	x	104
CCN1CCN(C(=O)C(c2ccccc2)N2Cc3ccccc3C2=O)CC1 (stereo unspecified)	97	93	-27	103
O=C(OCCn1ncc2ccccc2c1=O)c1cccs1	102	89	-12	107

Filtered by structure: those above containing a cyano group.
SMILES	Sa growth 42C	Sa growth 42C second temp	HCMV UL50-53 inh	GIV Gai3 FP
CCOC(=O)N1CCC2(CC1)C(C#N)=C(N)SC(N)=C2C#N	74	66	1	100
COc1ccc(NCc2c(C#N)c(C)nn2-c2ccccc2)cc1	74	90	-20	x

(more compounds)
SMILES	Sa growth 42C	Sa growth 42C second temp	HCMV UL50-53 inh	GIV Gai3 FP
Cc1cc(N2CCN(c3ccccc3F)CC2)n2nc(C)c(-c3ccc(Cl)cc3)c2n1	100	91	-18	105
CC(=O)Nc1ccc2nc3c(=O)n(C4CCCCC4)c(=O)[nH]c3nc2c1	94	94	-48	174
COc1ccc(Cl)cc1NC(=O)c1nnn(CC(=O)Nc2c(C)cccc2C)c1N	94	72	x	103
CCn1cnc(S(=O)(=O)N2CCC(C(=O)N3CCOCC3)CC2)c1	x	x	-4	103
CN1CCN(C(=O)CCCC(=O)O)CC1	114	97	-27	100
C=CCN1C(=O)N(CC=C)c2cccc3cccc1c23	117	87	x	99
CC(=O)Nc1cccc(C(=O)N2CCCCC2)c1	95	93	-3	x
CCNc1nc(NCC)nc(SCCOC(=O)Nc2ccccc2)n1	x	x	-12	101
CCc1ccn2cc(-c3cc(-c4ccccc4)no3)nc2c1	99	92	-14	97
Cc1ccc(NC(=O)c2sc3nc(-c4cccs4)ccc3c2N)cc1F	102	96	-19	134
CCOC(=O)c1c(S(=O)(=O)N2CCC(C(=O)Nc3cccc(C)n3)CC2)c(C)n(C)c1C	114	84	x	100&102
Cc1cc2nc3sc(C(=O)NCCCN4CCN(c5ccccc5)CC4)cc(=O)n3c2cc1C	x	x	-19	103
COc1cccc(C(C)NC(=O)c2ccccc2OC)c1 (stereo unspecified)	95	98	-11	101
COc1cc(-c2nc3n(n2)C(c2ccc(F)cc2)C(C(N)=O)=C(C)N3)cc(OC)c1OC (stereo unspecified)	97	83	-13	103
CCOCCCNC(=O)c1c[nH]c2ccc(S(=O)(=O)N(C)c3ccc(Cl)cc3F)cc2c1=O	123	99	x	106
CC1(C)COC(c2sccc2C(=O)N(C(=O)NC2CCCCC2)C2CCCCC2)=N1	99	89	-28	103
COc1ccc(NC(=O)c2nnn(-c3ccc4noc(-c5ccccc5)c4c3)c2C)cc1	x	x	-22	96
COc1ccc(-n2nc(C(=O)Nc3cc(C)on3)c(=O)n(C)c2=O)cc1	x	x	-142	99
CC(=O)N1CCN(CCN=CC2=C(O)CC(c3ccco3)CC2=O)CC1 (stereo unspecified)	100	93	23	103
CCCC1CCC(C2CCC(C#N)CC2)CC1 (stereo unspecified)	110	84	5	x
CCOc1ccc(-c2c(C#N)c(N)n3c(nc4ccccc43)c2C#N)cc1OC	x	x	8	117
COc1ccc(CNC(=O)C2COc3ccccc3O2)cc1 (stereo unspecified)	94	106	8	99
O=C(CN1CCN(Cc2ccc(F)cc2)C1=O)NCc1ccccc1Cl	121	89	-10	101
C=CCNC(=O)CCc1nc2sc3c(c2c(=O)[nH]1)CCCC3	x	x	-10	107
CCOc1ccc(-c2c(C)[nH]n3c(=O)c(N4CCC(C)CC4)c(C)nc23)cc1OCC	x	x	-26	97
CC1=C(C(=O)OCCc2ccccc2)C(c2cc3c(cc2Br)OCO3)NC(=O)N1 (stereo unspecified)	x	x	-8	108
O=C(Cc1ccc(-n2cccc2)cc1)N1CCc2ccccc21	101	98	x	101
Cc1noc(C)c1S(=O)(=O)Nc1ccc(N2CCCCC2)cc1	86	95	-5	101
C=C(NCc1ccncc1)c1ccc(Cl)cc1	100	89	-16	99
COc1ccc(OC)c(NC(=O)N(C)CCc2c(C)nn(C)c2C)c1	82	90	10	106&105
O=C(c1cccc(NC2=NC3CS(=O)(=O)CC3S2)c1)N1CCCC1 (stereo unspecified)	114	96	8	109
CCn1cc(C(=O)N2CCN(c3cc(Cl)ccc3C)CC2)c2cc(OC)c(OC)cc2c1=O	98	93	7	99
Cc1ccc2c(=O)cc(CSc3ccccc3)[nH]c2c1C	101	92	x	100
CC(=O)Nc1ccc(C#N)c(OC(F)F)c1	103	96	-4	x
COC(=O)c1[nH]c(CN2C(=O)c3ccccc3S2(=O)=O)c(C(=O)OC)c1C	88	81	-27	x
Cc1nc(-c2ccc(S(=O)(=O)NCc3ccc(F)cc3)cc2)co1	98	82	x	104
Cc1cccc(C)c1NC(=O)C1(NC(=O)C(C)O)CCCC1 (stereo unspecified)	109	102	8	x
COc1nc(C)nc2c1sc(=S)n2C	80	78	-30	103
O=C(Nc1ccc(N2CCOCC2)nc1)c1c(F)cccc1F	89	83	-19	101
N=c1sc(C(=O)c2ccccc2)c2scc(-c3ccccc3)n12	103	123	3	x

Sorted by value in Sa growth 42C second temp (ascending): three of the compounds above.
Molecule | Sa growth 42C second temp
O=C(Nc1ccc(N2CCOCC2)nc1)c1c(F)cccc1F | 83
Cc1cccc(C)c1NC(=O)C1(NC(=O)C(C)O)CCCC1 (stereo unspecified) | 102
N=c1sc(C(=O)c2ccccc2)c2scc(-c3ccccc3)n12 | 123

Additional entries follow.
SMILES	Sa growth 42C	Sa growth 42C second temp	HCMV UL50-53 inh	GIV Gai3 FP
COc1ccc(C(C#N)N2CCN(C(C#N)c3ccc(OC)c(OC)c3)CC2)cc1OC (stereo unspecified)	110	96	-18	103
CN(C)c1ccc(CNC(=O)CCCn2ccc3cc(S(=O)(=O)N4CCCC4)ccc32)cc1	109	97	x	105
COc1cccc(Nc2ncnc3nc[nH]c23)c1	87	67	-27	103
O=C(c1sc2ccccc2c1Cl)n1cccn1	99	92	-4	x
Cc1sc(NC(=O)CSc2ccccc2)c(C#N)c1C	104	88	-34	106
CCC(C)NC(=O)CCc1c(C)nc2c(c(C)nn2-c2ccc(C)cc2)c1C (stereo unspecified)	104	84	-12	101
N=c1oc2ccc(Br)cc2cc1-c1ccccn1	89	94	-10	x
CC1=C(C(=O)NCc2cccnc2)C2(CCN(S(C)(=O)=O)CC2)OC1=O	x	x	-7	105
COc1cc(Cl)c(C)cc1NC(=O)Cn1cc(S(=O)(=O)N2CCC(C)CC2)c2ccccc2c1=O	98	95	-6	108
COc1ccc(CNC(=O)C2CCN(c3nc4ccccc4[nH]3)CC2)cc1OC	109	87	x	102
O=C(CSc1nc(=O)n2ccccc2n1)OCc1ccccc1	94	74	-40	106
Cc1ccc(CNC(=O)Cn2c(=O)ccc3cc(S(=O)(=O)N4CCCC4)ccc32)cc1	92	89	x	96
COc1cc(C)ccc1OCCSc1nc(-c2cccc(C)c2)nc2cc(=O)[nH]n12	98	89	x	95
Cc1[nH]nc(Nc2ccccc2)c1N=Nc1ccc(Br)cc1	102	95	-16	x
O=C(CN1N=C(c2ccccc2F)c2cc(Cl)ccc2S1(=O)=O)Nc1cc(F)ccc1F	x	x	-10	100
COC(=O)c1ccc(COc2ccc3c(-c4ccccc4)cc(=O)oc3c2C)o1	114	94	x	101
